Screens from PubChem BioAssay.
KCNQ2 enhance: potentiators of rat KCNQ2 potassium channel | CHO-K1 KCNQ2, FluxOR thallium flux fluorescence; stronger effect = higher value | hit rate 0.54% among 310,000 | B-score at 10 µM;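 active = fluorescence ratio B-score at least 3 SD of library B-scores, with initial fluorescence B-score within 3 SD, cut at about 5.3 in these data; same plate scores as AID 2156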;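 note: B-score of peak minus minimum over baseline fluorescence ratio after K+ and Tl+ stimulus; positive B-score means potentiation of KCNQ2 with more thallium influx and brighter signal; only the inactives scoring about 0 or higher are listed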
Target sequence (O88943 whole entry, looked up): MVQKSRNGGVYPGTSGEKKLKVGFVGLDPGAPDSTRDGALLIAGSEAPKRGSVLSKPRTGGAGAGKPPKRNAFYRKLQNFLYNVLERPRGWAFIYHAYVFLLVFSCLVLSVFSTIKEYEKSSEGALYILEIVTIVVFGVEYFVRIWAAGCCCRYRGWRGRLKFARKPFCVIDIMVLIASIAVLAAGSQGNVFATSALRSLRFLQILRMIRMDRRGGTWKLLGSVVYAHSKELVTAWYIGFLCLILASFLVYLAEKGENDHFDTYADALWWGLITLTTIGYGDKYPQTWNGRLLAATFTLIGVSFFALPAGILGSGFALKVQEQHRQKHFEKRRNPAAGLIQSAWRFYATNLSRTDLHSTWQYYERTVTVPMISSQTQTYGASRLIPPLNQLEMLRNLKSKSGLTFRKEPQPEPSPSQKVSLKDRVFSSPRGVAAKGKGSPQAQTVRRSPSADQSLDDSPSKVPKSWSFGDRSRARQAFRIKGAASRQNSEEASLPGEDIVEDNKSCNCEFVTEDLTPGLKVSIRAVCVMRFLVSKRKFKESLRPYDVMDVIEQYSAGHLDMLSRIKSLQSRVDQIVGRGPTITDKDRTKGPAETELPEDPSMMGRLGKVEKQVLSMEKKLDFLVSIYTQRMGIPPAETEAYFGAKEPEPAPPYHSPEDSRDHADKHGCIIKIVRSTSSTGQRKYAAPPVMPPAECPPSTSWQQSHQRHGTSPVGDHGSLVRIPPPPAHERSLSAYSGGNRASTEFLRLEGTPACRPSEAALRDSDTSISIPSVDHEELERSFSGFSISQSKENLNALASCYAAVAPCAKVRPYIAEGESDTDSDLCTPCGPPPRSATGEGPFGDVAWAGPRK
KCNQ2 enhance baseline: also measured in KCNQ2 enhance; calls as there; B-score; compound at 10 µM; measured here: initial fluorescence intensity artifact check;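 brightness before thallium and not channel activity; 0 = typical well and far values either way flag optical interference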
* hit, by the source's call. The list is partial (hit frequency here may not be typical).

The first 7 entries (preview)
Each structure is followed by: KCNQ2 enhance | KCNQ2 enhance baseline
> O=C(O)Cc1ccc(NC(=O)CCN2C(=O)c3ccc([N+](=O)[O-])cc3C2=O)cc1
→ 1.5 | 1.5
> Cc1c(Cl)c([N+](=O)[O-])nn1CCCC(=O)Nc1c(C)n(C)n(-c2ccccc2)c1=O
→ 0.03 | 0.68
> O=C(COC(=O)/C=C/c1ccc(Cl)cc1)Nc1ccc2c(c1)OCCO2
→ 0.06 | 1.9
> CCC(=O)c1ccc(OCCn2cnc3ccccc32)cc1
→ 0.46 | 1.3
> Cc1ccccc1NS(=O)(=O)c1ccc(NC(=O)CSCc2ccc(Br)cc2)cc1
→ 0.3 | -0.37
> O=C(NC1CCN(Cc2ccccc2)CC1)c1cncc(Br)c1
→ 0.69 | 0.78
> CC1=CCC(C(=O)O)C(C(=O)NC2CCCCC2)C1 (centres undefined)
→ 0.1 | 0.79

The listing, from the first entry:
Each structure is followed by: KCNQ2 enhance | KCNQ2 enhance baseline
> O=C(O)Cc1ccc(NC(=O)CCN2C(=O)c3ccc([N+](=O)[O-])cc3C2=O)cc1
→ 1.5 | 1.5
> Cc1c(Cl)c([N+](=O)[O-])nn1CCCC(=O)Nc1c(C)n(C)n(-c2ccccc2)c1=O
→ 0.03 | 0.68
> O=C(COC(=O)/C=C/c1ccc(Cl)cc1)Nc1ccc2c(c1)OCCO2
→ 0.06 | 1.9
> CCC(=O)c1ccc(OCCn2cnc3ccccc32)cc1
→ 0.46 | 1.3
> Cc1ccccc1NS(=O)(=O)c1ccc(NC(=O)CSCc2ccc(Br)cc2)cc1
→ 0.3 | -0.37
> O=C(NC1CCN(Cc2ccccc2)CC1)c1cncc(Br)c1
→ 0.69 | 0.78
> CC1=CCC(C(=O)O)C(C(=O)NC2CCCCC2)C1 (centres undefined)
→ 0.1 | 0.79
> Cn1c([N+](=O)[O-])cnc1N1CCN(c2nncs2)C1=O
→ 2.5 | 0.1
> Cc1cccc(-n2c(Cc3cc(=O)[nH]c(=O)[nH]3)nnc2SCC(=O)N2CCCCC2)c1
→ 0.04 | 1.3
> CC(=C/c1ccco1)/C=N/NC(=O)Cc1cccn1C
→ 0.33 | -0.37
> COc1ccc(OC)c(NC(=O)CSc2nnc(CNC(=O)c3cc(OC)c(OC)c(OC)c3)o2)c1
→ 0.85 | -0.44
> COc1ccc(NC(=O)CN(c2ccc(C)cc2)S(=O)(=O)c2c(C)nn(C)c2C)cc1OC
→ 1.1 | 1.2
> C/C(=N\Nc1nccnc1Cl)c1ccc(O)c(C)c1
→ 0.01 | 0.02
> O=C(CN1C(=O)c2ccccc2S1(=O)=O)c1ccc2c(c1)OCCCO2
→ 1.6 | 0.01
> O=C(Cc1ccsc1-c1ccccc1)NO
→ 1.6 | 1.1

The last four records of the section above open the next one:
Each structure is followed by: KCNQ2 enhance | KCNQ2 enhance baseline
> COc1ccc(NC(=O)CN(c2ccc(C)cc2)S(=O)(=O)c2c(C)nn(C)c2C)cc1OC
→ 1.1 | 1.2
> C/C(=N\Nc1nccnc1Cl)c1ccc(O)c(C)c1
→ 0.01 | 0.02
> O=C(CN1C(=O)c2ccccc2S1(=O)=O)c1ccc2c(c1)OCCCO2
→ 1.6 | 0.01
> O=C(Cc1ccsc1-c1ccccc1)NO
→ 1.6 | 1.1
> O=[N+]([O-])c1cccnc1Oc1ccc(F)cc1
→ 1.1 | -1
> Nc1c(Cl)ncnc1N/N=C/c1cccc(O)c1
→ 0.04 | -0.77
> CCN(C(=O)Cn1c(=O)oc2cc(S(=O)(=O)N3CCOCC3)ccc21)c1ccccc1
→ 1.3 | 0.19
> O=C(COc1cc2oc(=O)cc(-c3ccccc3)c2cc1Cl)NC(Cc1c[nH]c2ccc(O)cc12)C(=O)O (centres undefined)
→ 0.66 | 0.92
> NC(=O)c1ccc(N2CCN(c3ccc(O)cc3)CC2)c([N+](=O)[O-])c1
→ 1 | 0.34
> CCCc1[nH]nc2c1C1(CCOC1C)C(C#N)=C(N)O2 (centres undefined)
→ 0.56 | -1.4
> CCC(=O)Nc1cccc(-c2nc3ncccc3o2)c1C
→ 0.05 | -3.1
> CC(C)(C)n1nnnc1C(c1cccc(C#N)c1)N1CCN2CCCC2C1 (centres undefined)
→ 0.46 | -0.01
> CCCn1c(N)c(C(=O)CSc2nc3ccccc3c(=O)n2Cc2ccccc2)c(=O)[nH]c1=O
→ 0.81 | -1
> CCOC(=O)C1=C(C)C2C3C(=O)N(c4ccc(C)cc4C)C(=O)C3C1(C)C1C(=O)N(c3ccc(C)cc3C)C(=O)C21 (centres undefined)
→ 0.48 | 1.6
> Cc1cccc(NS(=O)(=O)c2csc(C(N)=O)c2)c1C
→ 0.87 | -0.12
> CCCOc1ccc(S(=O)(=O)Nc2ccccn2)c2ccccc12
→ 3 | -1.7
> COc1ccc(N(CC(=O)NC2CCCCC2)S(=O)(=O)c2c(C)[nH]c(=O)[nH]c2=O)cc1
→ 0.07 | -0.59
> CCn1cc(CN2CCC(C(=O)Nc3ccc(Oc4ccccc4F)cc3)CC2)c(C)n1
→ 1.9 | 0.02
> COc1ccccc1C(=O)NC(=S)NNC(=O)c1sc2ccccc2c1Cl
→ 23* | -0.31*
> COc1ccc(N(CC(=O)NCc2ccco2)C(=O)CNS(=O)(=O)c2ccc(Cl)cc2)cc1
→ 0.8 | -0.33
> O=C(Cc1nnc(NC(=O)Nc2ccccc2)s1)NCc1ccccc1
→ 0.87 | 0.02
> O=C(c1ccc(Cl)c(S(=O)(=O)N2CCOCC2)c1)N(c1ccccn1)C1CCCCC1
→ 0.17 | -1.8
> COc1ccc(-c2csc(NC(=O)CSc3n[nH]c(C)n3)n2)cc1
→ 1.5 | 0.08
> Cc1sc(N)c(C(=O)c2ccccc2)c1C
→ 0.1 | -0.98
> O=C1CC(N2CCSCC2)C(=O)N1c1ccccc1 (centres undefined)
→ 0.09 | 0.78
> CN(C)S(=O)(=O)c1ccc(C(=O)NCC(=O)N/N=C/c2ccccc2Cl)cc1
→ 0.07 | -0.75
> CCOC(=O)N1CCC(N2C(=O)c3ccc(C(=O)Nc4ccc(OC)cc4)cc3C2=O)CC1
→ 0.07 | 0.75
> CCOc1ccccc1N1CCN(C(=O)c2c(Cl)cnn2C)CC1
→ 1.6 | 1.7
> CCN(CC(=O)Nc1ccc(OC)cc1)CC(=O)Nc1ccc(Br)cc1F
→ 0.18 | -1.5
> O=C(Nc1ccccc1)c1ccc2c(c1)OCCO2
→ 1.6 | 1.8
> CCOc1ccc(C2=Nn3c(nnc3-c3ccccc3)SC2)cc1Cl
→ 0.86 | 1.2
> CC(C)CCNc1nc2c(c(=O)n(Cc3cccc(F)c3)c(=O)n2C)n1C
→ 0.25 | -1.1
> COc1ccc(C(=O)/C=C/Nc2ccc(S(N)(=O)=O)cc2)cc1OC
→ 0.02 | 0
> CC1CC(C)(C)NC(=S)N1CC(=O)N1CCN(Cc2ccccc2)CC1 (centres undefined)
→ 0.43 | -0.22
> CSCCC(NS(=O)(=O)c1ccc(Br)cc1)C(=O)OCC(=O)NC1CC1 (centres undefined)
→ 1.1 | -0.28
> CN(C(=O)CSc1ncnc2sc(-c3ccccc3)cc12)C1CCS(=O)(=O)C1 (centres undefined)
→ 20* | 1.6*
> CC(C)c1ccc(NC2CCCN(C(=O)CCN3CCCO3)C2)cc1 (centres undefined)
→ 1.1 | -1.9
> CC(=O)NCc1ccc(-c2csc(-c3cccs3)n2)cc1
→ 0.1 | -1.1
> Cc1ncc(CN2CCN(Cc3ccc(F)cc3)C(CCO)C2)s1 (centres undefined)
→ 1.9 | -0.89
> Cc1csc(SCCn2c(Br)nc3c2c(=O)[nH]c(=O)n3C)n1
→ 0.52 | 1.7
> C[C@@H](C(=O)N[C@@H](Cc1c[nH]c2ccccc12)C(=O)O)n1nnc2ccccc2c1=O
→ 2 | -0.06
> CC(C#N)(Nc1ccc(Cl)cc1)c1cccnc1 (centres undefined)
→ 0.74 | -0.28
> CC(=O)OC1CCC(OC(C)=O)c2c1n([O-])c(C)c(C)[n+]2=O (centres undefined)
→ 0.73 | 1.1
> O=[N+]([O-])c1cccc(NC2=NCCC2)c1
→ 1.8 | -0.67
> CCOc1ccc(CCNC(=O)c2cc(C)nc3ccccc23)cc1OCC
→ 0.38 | 0.94
> NC(=O)c1ccc(Nc2ccc3c(c2)CCC3)c([N+](=O)[O-])c1
→ 0.76 | -2.6
> C=CCNCCOc1ccc(C(C)(C)c2ccccc2)cc1
→ 0.6 | -0.2
> CCn1nc(C)c(/C=N/NC(=O)Cn2nnc(N)n2)c1C
→ 0.67 | -1.4
> COc1ccc(S(=O)(=O)N(C)CC(=O)NCC2CCCO2)cc1OC (centres undefined)
→ 0.07 | -0.88
> COc1ccccc1/C=C/C(=O)NC1CC2CCC1C2 (centres undefined)
→ 0.45 | 1.3
> CCOc1cc(CNCc2cccnc2)cc(Br)c1OCC(N)=O
→ 1.2 | -0.23
> CCOc1ccc(C2NC(=O)Cc3cc(OC)c(OC)cc32)cc1 (centres undefined)
→ 0.3 | 0.01
> COc1ccc(OC)c(N2CC(O)(c3cccs3)[N+]3=C2SCCC3)c1 (centres undefined)
→ 0.01 | 1.2
> Cc1ccc(C(=O)Nc2nc3ccc(S(C)(=O)=O)cc3s2)s1
→ 2.4 | -0.96
> C=CC[N+]1(CC=C)CCOCC1
→ 1 | -0.55
> CCCCC(=O)Oc1ccccc1C1SCc2cc(C)c(C)cc2CS1
→ 0.35 | -0.44
> O=C(Nc1cccnc1Cl)c1ccc2c(Cl)c3c(nc2c1)CCC3
→ 1.4 | -0.3
> Cc1nc(-c2ccc(S(=O)(=O)N3CCCN(CCc4ccccc4)CC3)s2)cs1
→ 0.64 | 0.22
> CCN(CC)CCCNC(=O)c1cn(CC)c2cc(N3CCN(C(=O)c4ccco4)CC3)c(F)cc2c1=O
→ 0.15 | -0.11
> C/C(N)=C(/C#N)C(=O)COC(=O)[C@@H](NC(=O)c1ccccc1Cl)C(C)C
→ 1 | 0.01
> C/C=C(\C)c1nnc(NC(=O)c2ccco2)s1
→ 0.66 | -0.09
> N/C(=N\OC(=O)C12CC3CC(CC(C3)C1)C2)c1ccccc1
→ 0.41 | -0.12
> CN1CCN(CC(O)COc2ccc(C(=O)O)cc2)CC1 (centres undefined)
→ 0.37 | -0.16
> CCC(=O)C1CCCN(C(=O)CCc2nnc(-c3ccc4c(c3)OCO4)o2)C1 (centres undefined)
→ 1.4 | 0.38

Following part:
Each structure is followed by: KCNQ2 enhance | KCNQ2 enhance baseline
> O=Cc1ccnc(-c2ccc(OC(=O)c3ccco3)cc2)n1
→ 0.85 | 0.41
> O=C(COC(=O)CCCc1nc2ccccc2s1)NC(=O)NCc1ccco1
→ 0.18 | -1.1
> CC1CCCCN1C(=O)c1ccccc1NC(=O)c1ccco1 (centres undefined)
→ 0.74 | 0.03
> CCc1ccc(OCCOCC(O)CNC(C)(C)C)cc1 (centres undefined)
→ 0.49 | 0.06
> CCOC(=O)C(=O)NNc1ccccc1OC
→ 0.01 | 0.67
> Cc1cnc(C)c(N2CCN(Cc3nc(-c4ccc(C)o4)oc3C)CC2)n1
→ 1.1 | 0.67
> CC(=O)c1c(C)nc(C)nc1NC(=O)Cc1ccccc1
→ 2.6 | -3
> O=C(NC(=S)Nc1nc2ccc(F)cc2s1)c1ccco1
→ 13* | 0.36*
> NS(=O)(=O)c1ccc(NC(=O)COC(=O)CNC(=O)C23CC4CC(CC(C4)C2)C3)cc1
→ 0.1 | -1.2
> CN1C(=O)S/C(=C/c2cccnc2)C1=O
→ 0.42 | 1.2
> O=C(COc1ccccc1Cl)N1CCN(c2ncccn2)CC1
→ 0.07 | 0.51
> CCOc1ccc(C(=O)NCCC(=O)N2CCC3(CC2)NCCc2[nH]cnc23)cc1
→ 0.09 | -0.05
> O=C(Nc1ccc(Cl)cc1F)c1ccc(COc2c(F)c(F)c(F)c(F)c2F)o1
→ 0.98 | 0.94
> O=C(N1CCOCC1)N1CCN(C(=O)N(c2ccccc2)c2ccccc2)CC1
→ 0.35 | 0.03
> CCC(CC)C(=O)Nc1nnc(S(=O)(=O)N(CC)c2ccc(OC)cc2)s1
→ 0.43 | -1.2
> COc1cc(C2NC(=O)NC(c3ccccc3)=C2C(C)=O)c(Cl)cc1OCC(=O)O (centres undefined)
→ 0.54 | 1.1
> Cc1cc(C)n2ncc(C(=O)NCCc3ccccc3)c2n1
→ 1.3 | 0.16
> O=C(Nc1cccc(NC(=O)c2ccc(F)cc2)c1)c1ccc(F)cc1
→ 0.32 | 0.06
> N=c1c2ccccc2nc2n1CCCCCCCCCCC2
→ 1.2 | 0.31
> Cn1c(=O)c2c(ncn2CC(=O)Nc2ccccc2)n(C)c1=O
→ 1.6 | 0.09
> CSc1nc2sc3c(c2c(=O)n1C)CCCC3
→ 0.2 | -1.1
> COc1ccccc1NCCC(=O)OCC(=O)NC1CCCCCC1
→ 0.06 | -1.6
> CCn1c(SCc2ccc(C#N)cc2)nnc1-c1ccc(S(=O)(=O)N2CCCCC2)cc1
→ 1.2 | -2.1
> COC(=O)Cn1cc(C(=O)c2ccco2)c2ccccc21
→ 0.09 | -1.7
> Cc1cc(N2CCOCC2)ccc1/C=C1\NC(=O)N(CC(=O)Nc2ccccc2C)C1=O
→ 0.52 | -0.33
> CCn1c(SCC(=O)NCc2ccccc2)nc2c(c1=O)SC(C)C2 (centres undefined)
→ 0.5 | -2
> CCN(CC)C(=O)c1sc(NC(=O)c2ccc3c(c2)OCO3)c(C#N)c1C
→ 0.41 | 1.6
> CCOC(=O)CSc1nc2ccccc2c(=O)n1CC
→ 0.49 | 0.93
> O=C(NCCc1nc2ccccc2[nH]1)Nc1ccccc1
→ 0.61 | -0.11
> COc1ccc(C(=O)c2coc3ccc(OC(C)=O)cc23)cc1
→ 1.2 | -0.9
> Cc1ccc(S(=O)(=O)N2CCC(=O)N(C(CO)Cc3ccccc3)CC2)cc1 (centres undefined)
→ 0.59 | -0.32
> CC1CCCCC1NC(=O)c1ccc(N2CCCC2=O)cc1 (centres undefined)
→ 0.14 | 0.79
